Assay outcomes as filed in PubChem.
TRPML1 agonist – qHTS for Agonists of the Human Mucolipin Transient Receptor Potential 1 (TRPML1). Mucolipin-1 (Homo sapiens), Q9GZU1. TRPML1-expressing cells, Ca2+ dye fluorescence, FDSS; host cell line not named in the record; reference of the full effect not given here. activation, % (no concentration beside the values). 410,000 tested, 0.12% active; in the data active = activation above about 50%; inconclusive = about 30% to 50%; inactive = below about 30%; note: 0% is about no effect; the text of the record puts the active cut at 80%
Target sequence (Q9GZU1 whole entry, looked up): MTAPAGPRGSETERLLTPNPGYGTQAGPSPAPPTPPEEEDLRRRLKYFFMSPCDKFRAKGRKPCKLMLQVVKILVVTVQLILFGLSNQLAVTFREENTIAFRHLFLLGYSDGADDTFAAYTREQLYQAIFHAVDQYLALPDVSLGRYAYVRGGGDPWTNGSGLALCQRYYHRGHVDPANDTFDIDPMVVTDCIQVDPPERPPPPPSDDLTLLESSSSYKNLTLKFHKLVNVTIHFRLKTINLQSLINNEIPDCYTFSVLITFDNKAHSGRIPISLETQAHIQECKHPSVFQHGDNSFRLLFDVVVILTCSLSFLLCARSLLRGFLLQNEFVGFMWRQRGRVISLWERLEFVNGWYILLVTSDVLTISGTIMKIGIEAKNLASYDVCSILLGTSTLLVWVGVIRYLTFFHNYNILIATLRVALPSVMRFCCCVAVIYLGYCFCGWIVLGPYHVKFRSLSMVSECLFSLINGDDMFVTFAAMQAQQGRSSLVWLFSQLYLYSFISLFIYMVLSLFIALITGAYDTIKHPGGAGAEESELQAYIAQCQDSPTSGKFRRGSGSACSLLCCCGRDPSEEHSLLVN
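Kinetic FDSS Ca2+ read in Tet-induced TRPML1-DL cells (ABD Ca8 dye plus quencher, 45-90 min RT loading): baseline, then compound, then 110 s agonist window; EC80 agonist 54-4 at 4uM final added afterwards for a 110 s antagonist window.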
gsp antag – qHTS for Antagonists of gsp, the Etiologic Mutation Responsible for Fibrous Dysplasia/McCune-Albright Syndrome: qHTS; gsp-mutant cells, cAMP HTRF, 30 min; control for the full effect not named in the record; Potency, µM (highest dose often 76.9 µM), for the others: top-dose activity change, negative = inhibition, most hits filed as inhibitors; 340,000 tested, 0.4% active; AID 624288, 2012; active = falling curve of any shape with a large fitted effect; inconclusive = falling curve, mostly with a smaller effect; inactive = flat or rising curve; cell line not stated here;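 note: intracellular cAMP measured with PDE inhibitor Ro 20-1724 present during compound exposure; potency is the fitted concentration of half-maximal effect; % is set by controls: 0 for no effect and ±100 for the full control effect; nearly all actives have a fitted effect of over 65% in size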
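HTRF cAMP read-out (cAMP-d2 plus anti-cAMP antibody-K in lysis buffer, 30 min RT). Before lysis, cells are exposed to compounds with […] for 30 min at 37C in DPBS containing Ca/Mg, BSA and Tween 20.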
Menin-MLL FL inh – qHTS Assay for Inhibitors Targeting the Menin-MLL Interaction in MLL Related Leukemias: Competition With Fluorescein Labeled MLL-derived Peptide; Fluorescence polarization, fluorescein-MLL peptide displacement from menin; FP activity change, % at 61.4 µM; 290,000 tested, under 10 active; inconclusive = falling polarisation curve, or a change in total fluorescence; inactive = total fluorescence flat and polarisation flat or rising; no compound was filed as active; the % refers to the polarisation; negative = inhibition;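 note: % of control where 0% means no effect; inhibitors lower the polarisation; unlabelled MLL peptide was the positive control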
gsp agonist – qHTS for Agonist of gsp, the Etiologic Mutation Responsible for Fibrous Dysplasia/McCune-Albright Syndrome: qHTS | Potency, µM (top dose mostly 76.9 µM), for inactives: at the top dose activation (cAMP increase), usual class: activators | gsp mutant cells, cAMP HTRF, 30 min; control for the full effect not named in the record | AID 624287, 2012 | 340,000 tested, 0.13% active; active = well fitted activation curve with a large enough effect; inconclusive = small, poorly fitted or top-dose-only effect, or another doubt; inactive = no such curve, though single readings can be large or run the other way; cell line not stated here;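 note: phosphodiesterase inhibitor Ro 20-1724 added with compounds to block cAMP breakdown; potency is the fitted concentration of half-maximal effect; nearly all actives have a fitted effect of over 60% in size; about a fifth of the inactives were tested at one dose only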
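Cells in DMEM/10% FBS with G418 were pretreated with compounds in DMSO plus […] (300 uM stock) for 30 min at 37C. cAMP was measured by HTRF (cAMP-d2 plus anti-cAMP antibody-K) after 30 min at room temperature.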
ClpP mod – qHTS Assay for Activators of ClpP; Potency, µM (series often up to 57.5 µM), for inactives: top-dose activity change, negative = active; ATP-dependent Clp protease proteolytic subunit (Bacillus subtilis (strain 168)), P80244; 340,000 tested, 1.9% active; AID 651965, 2013; purified B. subtilis ClpP, FRET peptide cleavage, 20 min; active = well fitted falling curve with a large enough effect; inconclusive = small, poorly fitted or top-dose-only effect; inactive = no such curve, though single readings can be large or run the other way; note: potency is the fitted concentration of half-maximal effect; the source files actives as falling curves though it sought activators and does not explain the sign; nearly all actives have a fitted effect of over 65% in size; many hits overshoot -100%
Target sequence (P80244 whole entry, looked up): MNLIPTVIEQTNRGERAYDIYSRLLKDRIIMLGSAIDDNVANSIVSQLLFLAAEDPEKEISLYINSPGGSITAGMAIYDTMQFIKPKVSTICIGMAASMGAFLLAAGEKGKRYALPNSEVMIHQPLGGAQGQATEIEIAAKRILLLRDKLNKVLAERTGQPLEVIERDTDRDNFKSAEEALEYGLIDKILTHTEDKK
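FRET quenching reversal measured ClpP activation: 10 microg/mL B. subtilis ClpP at pH 8 with the FRET-FV decapeptide, read at 430 nm after 320 nm excitation. The 20-min minus 0-min signal was scaled between DMSO/no-enzyme wells and ADEP (5.8 microM final).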
TRPML1 blocker – qHTS for Inhibitors of the Human Mucolipin Transient Receptor Potential 1 (TRPML1) | Mucolipin-1 (Homo sapiens), Q9GZU1 | TRPML1-inducible cells, Ca2+ dye fluorescence, FDSS; active compounds read low; inhibition of EC80 agonist-evoked calcium signal | activity change, negative = inhibition, % (concentration not given with the values) | 390,000 tested, 0.02% active; in the data active means activity change below about -50%; inconclusive means about -30% to -50%; inactive means above about -30%;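 note: stimulus is agonist 54-4 at its EC80 concentration; % is set by controls: 0 for no effect and ±100 for the full control effect; the text of the record puts the active cut at -80%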
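Tet-induced TRPML1-DL cells loaded with Ca8 no-wash calcium dye were read kinetically on FDSS. Compound addition was followed by EC80 agonist 54-4 (4 uM final); inhibition was read over 110 s.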
Starred values were filed as active, the others as inactive; ? = inconclusive; . = no result given; & = joins results of further samples; [ ] = another dose, or the depositor's remark.

SMILES | TRPML1 agonist | gsp antag | Menin-MLL FL inh | gsp agonist | ClpP mod | TRPML1 blocker
CC12CN3CC(C)(CN(C1)C3c1ccc(F)cc1)C2 (stereo not drawn) | . | 15.2% | 0.2 | -5.7% | -1.0% | .
CCN1CCCC1Cn1cnc2c([nH]c3cc(OC)ccc32)c1=O (stereo not drawn) | -0.7 | 0.1% | 65.3[activator] | ? | -28.6% | 2.6
CCCCOP(=O)(OCCCC)C(Nc1ccc(C(=O)OCC)cc1)c1ccncc1 (stereo not drawn) | 0.3 | -20.3% | -13.8 | 18.9% | . | -17.5
CSc1ccc(CCNC(=O)c2ccc(-n3c(C)cc4c3CCC(C)C4)cc2)cc1 (stereo not drawn) | 0.7 | . | . | . | 1.9% | -30.0
COc1ccccc1-c1c(C)nn2c(N)c(-c3ccccc3)cnc12 | -0.2 | -20.9% | -7.4 | -8.5%[15.4 µM] | . | 8.2
O=S(=O)(NNc1ncc(C(F)(F)F)cc1Cl)c1ccccc1 | 0.3 | 2.7% | . | -7.1%[15.4 µM] | -6.1% | -8.5
COc1ccc([N+](=O)[O-])cc1/C=N/NC(=O)CNC(=O)c1cccc(F)c1 | 0.4 | -7.4% | 1.5 | ? | -2.2% | -2.6
O=C(c1ccco1)N1CCN(C(=O)c2cnn(-c3ccc(F)cc3)c2-n2cccc2)CC1 | -0.6 | . | . | -45.3%[inhibitor] | -5.2% | -20.4
COc1ccc(NC(=O)Nc2nnc(N3CCCCC3C)s2)cc1OC (stereo not drawn) | -0.4 | 5.0% | 10.6 | 27.0% | -0.5% | 2.2
CCc1ccc(N2C(=O)CN(S(=O)(=O)CC)CC2(C)C(=O)NC2CCCCC2)cc1 (stereo not drawn) | 1.2 | . | . | . | -4.0% | 49.1
OC1(Cc2cc(-c3ccccc3)no2)CCN(CCCc2ccccc2)CC1 | 0.6 | 1.6% | 4.1 | 22.8% | 1.2% | 11.7
Cc1nc(N2CCCC2)ncc1C(=O)N1CCN(c2ccccc2F)CC1 | 3.2 | . | . | . | -16.4% | 1.9
CC1CCN(S(=O)(=O)c2ccc(C(=O)OC(C)C(=O)NC3CCCCC3C)cc2)CC1 (stereo not drawn) | -0.6 | 11.7% | . | -53.1%[inhibitor] | 1.0% | -7.3
COc1cc(/C=C/c2ccc3cccc(OC)c3n2)c(O)c([N+](=O)[O-])c1 | 1.2 | -22.8% | 2.0 | ? | 3.1% | 7.3
O=C(CCCn1c(=O)c2sccc2n(CC(=O)NCc2ccco2)c1=O)NCc1ccco1 | 1.6 | -5.5% | 0.5 | -3.4% | 0.7% | 0.9
O=C(Nc1ccc(CN2CCCCC2)cc1)c1sc2ccccc2c1Cl | 0.6 | 7.3% | 1.7 | 4.4%[15.4 µM] | . | 63.9
C=CCNc1sc(C(=O)c2ccccc2)c(N)c1C#N | 0.9 | 3.5% | 4.2 | 22.7% | -1.2% | -5.7
CC(=O)Nc1ccc(S(=O)(=O)c2ccc(N)cc2)cc1N | -0.1 | 2.6% | 5.8 | 16.5% | -5.0% | 7.8
S=C(Nc1ccc2c(c1)OCO2)Nc1ccc2c(c1)OCO2 | 0.0 | -14.9% | 1.9 | -12.4% | -1.3% | -3.9
O=C(CSc1nc2ccccc2c(=O)n1CC1CCCO1)Nc1ccccc1Cl (stereo not drawn) | 0.8 | -3.2% | 1.1 | -5.3%[15.4 µM] | 0.9% | 4.5
O=C(CSc1nnc(-c2cccnc2)o1)Nc1ccc(Cl)cc1 | -0.7 | 8.3% | 2.8 | 3.8% | . | 8.3
COc1ccc(NC(=O)c2cccc(NC(=O)C(C)C)c2)c([N+](=O)[O-])c1 | 0.0 | -19.0% | -2.6 | 3.0% | 1.1% | 5.0
Cc1ccc(Nc2nc(Cl)nc3ncn(C)c23)c(C)c1 | 0.6 | -2.6% | . | -4.3%[15.4 µM] | -2.4% | 5.0
Cc1cccc(C)c1NC(=O)CN(C)C(=O)CC1Sc2ccccc2NC1=O (stereo not drawn) | 0.4 | -10.7% | . | 5.9%[15.4 µM] | -0.6% | -5.2
COCCNC(=O)C(=O)Nc1cc2c3c(c1)C(C)C(=O)N3CCC2 (stereo not drawn) | 5.2 | ? | -3.6 | -9.3% | -0.2% | 12.8
COc1ccc(/C=N/n2c(C)nc3ccccc3c2=O)cc1OC | -1.3 | 2.5% | 7.0 | 5.9%[15.4 µM] | -1.5% | -22.2
O=c1ccnc(Nc2ccc(Cl)cc2)[nH]1 | -0.4 | -0.6% | 4.1 | ? | 0.3% | 3.3
COc1cc(O)oc1C=Nc1ccc(Oc2ccccc2)cc1 | 3.4 | 2.7% | 8.0 | -4.3% | -11.4% | 29.6
O=C(Nc1sc2c(c1C(=O)O)CCCC2)C(=O)N1CCOCC1 | -0.1 | -17.6% | . | -0.8% | 2.3% | -0.3
CCC(C)NC(=O)COC(=O)c1cccnc1Nc1ccccc1F (stereo not drawn) | -0.9 | -2.2% | 3.6 | -19.7% | -4.4% | -7.6
Cc1cccc(Nc2nc(N)c([N+](=O)[O-])c(NCCO)n2)c1 | 2.3 | 7.7% | 2.8 | -14.2% | -0.5% | -13.1
COc1ccc(N(CC(=O)NCCSc2ccccn2)S(=O)(=O)c2ccccc2)cc1Cl | 1.5 | -12.2% | . | -57.4%[inhibitor] | 0.9% | 14.5
CC1(C)CNC(=O)CC(C)(C)N1 | 0.9 | 11.8% | -3.2 | ? | 0.9% | 9.1
CCCCN1C(=O)C(=O)N(CC(=O)Nc2ccc(C(N)=O)cc2)C1=O | 2.4 | 8.2% | . | ? | -0.2% | 22.2
O=C1CC(C(F)(F)F)=NN1 | 0.8 | 2.0% | -0.8 | -3.1%[15.4 µM] | . | -2.4
CCCCOc1ccc(C(=O)N/N=C/c2ccc(OCCN3CCCCC3)c(OC)c2)cc1 | 1.3 | 6.4% | 6.4 | 8.2% | -12.1% | -7.6
COc1ccc(/C(O)=C2/C(=O)C(=O)N(CC3CCCO3)C2c2ccc(OC)c(OC)c2)cc1 (stereo not drawn) | -0.7 | -7.9% | 0.0 | 7.6% | -0.3% | -1.3
CC(=O)Nc1cccc(C(=O)NNC(=O)c2ccc(-n3cnnn3)cc2)c1 | -0.5 | 5.3% | . | -2.2% | . | 12.4
CCCN(CCC)C(=O)C1c2ccccc2Oc2ccccc21 | 1.8 | -7.9% | -2.3 | -54.6%[inhibitor] | -0.3% | 13.3
Cn1cccc1/C=N/N1CCN(Cc2ccccc2)CC1 | -0.6 | 4.7% | -0.5 | 1.9% | -0.7% | 22.7
O=C(c1ccc2c(c1)N(Cc1cccc(Cl)c1)C(=O)c1ccccc1S2(=O)=O)N1CCC(Cc2ccccc2)CC1 | 0.4 | . | . | . | -0.8% | 1.1
CC(C)(C)c1ccc(NC(=O)CSc2n[nH]c(=O)n2-c2cccnc2)cc1 | -0.6 | -13.9% | . | ? | -0.8% | -7.5
COc1ccccc1CC(=O)NCCc1c[nH]c2ccccc12 | 1.3 | -1.6% | . | 12.8% | . | -15.9
COc1ccc(-c2ccc3oc(-c4ccsc4)c(-c4ccc(OC)cc4)c3c2)cc1 | -0.5 | 5.1% | . | . | ? | -17.4
O=C(Cc1c(Cl)cccc1Cl)Nc1ccc(S(=O)(=O)Nc2ncccn2)cc1 | -0.3 | -0.3% | -11.4 | 10.5%[15.4 µM] | . | -9.8
CCc1ccc(NC(=O)C2CCCN2S(=O)(=O)c2ccc3c(c2)n(C)c(=O)c(=O)n3C)cc1 (stereo not drawn) | 0.1&-0.6 | -3.3% | 0.5 | -6.7% | ? | 7.3&5.9
COc1ccc(C(=O)Nc2ncc(C)s2)cc1S(=O)(=O)N1CCOCC1 | 1.3 | -7.9% | . | 12.5% | -4.8% | -5.5
Cc1cccc(OCCn2c(S(=O)(=O)O)nc3ccccc32)c1 | 0.1 | 7.9% | 2.0 | -2.7% | -12.5% | -7.0
Cc1cccc(CNC(=O)C(=O)Nc2ccccc2C)c1 | -0.6 | . | . | . | -3.3% | 5.8
Cc1cccc(C2=NN(c3ccc(Br)cc3)[C@@H](C(=O)N3CCOC3=O)[C@@H]2c2ccc([N+](=O)[O-])cc2)c1 | -0.5 | -4.6% | -5.2 | . | -0.9% | 22.6
CC(C)c1ccc(COc2ccc(C(=O)N3CCOCC3)cc2)cc1 | 1.8 | ? | 4.0 | -46.4%[inhibitor] | -0.2% | 6.2
CCSc1nc2c(c(=O)[nH]c(=O)n2C)n1C/C=C(/C)Cl | 2.5 | 10.3% | 4.0 | 7.2% | -1.8% | 15.6
Cc1cccc(Cc2ccc(Cl)nn2)c1 | -0.4 | -5.5% | 2.1 | 26.7%[15.4 µM] | . | -4.9
O=C(O)CSc1nnnn1-c1ccc2c(c1)OCCO2 | -1.1 | -4.9% | 0.2 | 1.3% | -1.0% | 6.4
Cc1oc(-c2ccccc2Cl)nc1CS(=O)(=O)CC(=O)NCc1ccc(F)cc1 | -0.3 | . | . | . | -0.9% | -12.1
Cc1ccc(OCc2cc(C(=O)N(C)Cc3nccn3C)no2)cc1C | -0.9 | 0.1% | -3.4 | 27.4% | 0.3% | 21.0

Looked up by compound from the list above, 6 records:
SMILES | TRPML1 agonist | gsp antag | Menin-MLL FL inh | gsp agonist | ClpP mod | TRPML1 blocker
CC(C)c1ccc(COc2ccc(C(=O)N3CCOCC3)cc2)cc1 | 1.8 | ? | 4.0 | -46.4%[inhibitor] | -0.2% | 6.2
O=C(c1ccc2c(c1)N(Cc1cccc(Cl)c1)C(=O)c1ccccc1S2(=O)=O)N1CCC(Cc2ccccc2)CC1 | 0.4 | . | . | . | -0.8% | 1.1
Cc1cccc(C2=NN(c3ccc(Br)cc3)[C@@H](C(=O)N3CCOC3=O)[C@@H]2c2ccc([N+](=O)[O-])cc2)c1 | -0.5 | -4.6% | -5.2 | . | -0.9% | 22.6
Cc1cccc(CNC(=O)C(=O)Nc2ccccc2C)c1 | -0.6 | . | . | . | -3.3% | 5.8
COc1ccc(C(=O)Nc2ncc(C)s2)cc1S(=O)(=O)N1CCOCC1 | 1.3 | -7.9% | . | 12.5% | -4.8% | -5.5
CC(C)(C)c1ccc(NC(=O)CSc2n[nH]c(=O)n2-c2cccnc2)cc1 | -0.6 | -13.9% | . | ? | -0.8% | -7.5
